Compound activity from PubChem.
NS1 inh: inhibitors of influenza NS1 protein function; Potency, µM (top dose mostly 46.1 µM), for inactives: at the highest dose activity, positive = more growth; AID 2326; hit rate 0.4% among 270,000; S. cerevisiae slowed by influenza A NS1, growth recovery by OD600; active means well fitted rising curve with a large enough effect; inconclusive means small, poorly fitted or top-dose-only effect; inactive means no such curve, though single readings can be large or run the other way; note: nearly all actives have a fitted effect of over 50% in size
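Recovery from NS1-induced slow growth read by OD600 in budding yeast switched to galactose assay medium (pH 6.0, -URA) at 1:100 dilution. Compound 23 nl per well; the matching strain lacking NS1 serves as control.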
StopGo reporter: FMDV 2A StopGo reporter, luciferase signal; AID 1159524; human cells with a luciferase reporter of 2A StopGo recoding; control for the full effect not named in the record; Potency, µM (titrated, usually from 57.9 µM), for the others: at the highest dose signal change, negative = less light; hit rate 1.2% among 410,000; active = well fitted falling curve with a large enough effect; inconclusive = small, poorly fitted or top-dose-only effect; inactive = no such curve, though single readings can be large or run the other way; tested in HEK293T cells; note: % is set by controls: 0 for no effect and ±100 for the full control effect; nearly all actives have a fitted effect of over 45% in size; luciferase light after 4 h
Cruzain inh Det: cruzain (T. cruzi) inhibition with detergent. P25779. purified cruzain, Z-FR-AMC fluorescence, 0.01% Triton. Potency, µM, for the others: max response, negative = inhibition, usual class: inhibitors. hit rate 0.43% among 200,000;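 note: plate controls were neutral wells for no effect and buffer without enzyme for full effect; nearly all actives have a fitted effect of over 40% in size; top concentration of the series not given in the record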
Target sequence (P25779 123-467 limits assumed): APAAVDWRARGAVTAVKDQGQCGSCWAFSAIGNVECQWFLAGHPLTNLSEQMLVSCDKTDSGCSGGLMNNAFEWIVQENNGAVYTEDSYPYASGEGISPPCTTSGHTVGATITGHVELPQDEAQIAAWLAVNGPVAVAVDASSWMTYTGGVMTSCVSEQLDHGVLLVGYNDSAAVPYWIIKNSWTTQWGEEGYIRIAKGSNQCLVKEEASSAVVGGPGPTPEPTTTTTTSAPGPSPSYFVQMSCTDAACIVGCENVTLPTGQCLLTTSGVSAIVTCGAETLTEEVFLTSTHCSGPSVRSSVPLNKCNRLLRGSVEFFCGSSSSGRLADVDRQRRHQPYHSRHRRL
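Cruzain (1.5 nM) preincubated 15 min at RT with compound in 100 mM sodium acetate pH 5.5, 5 mM DTT, 0.01% Triton X-100. Reaction started with 2 uM Z-FR-AMC; AMC fluorescence (ex 360/em 450 nm) change over 60 s gave rate.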
LASV entry inh: inhibitors of Lassa virus binding or cell entry; Lassa virus pseudotype entry inhibition, cell reporter; control for the full effect not named in the record; Potency, µM (highest dose often 37.9 µM), without a hit: at the highest dose activity change, negative = inhibition, most hits filed as inhibitors; hit rate 1.2% among 300,000; AID 540256; active means well fitted inhibition curve with a large enough effect; inconclusive means small, poorly fitted or top-dose-only effect, or effect the other way; inactive means flat fitted curve, though single readings scatter; tested in HEK293 cells; note: % is set by controls: 0 for no effect and ±100 for the full control effect; nearly all actives have a fitted effect of over 50% in size; luciferase read-out
MARV entry inh: blocks Marburg virus binding to or entry into cells; Marburg virus pseudotyped entry inhibition, cell reporter; control for the full effect not named in the record; about a third of the inactives were read at about 46 µM; Potency, µM (top dose mostly 37.8 µM), inactives show at the highest dose activity change, negative = inhibition, hits mostly inhibitors; hit rate 1.8% among 300,000; AID 540276; active = well fitted inhibition curve with a large enough effect; inconclusive = small, poorly fitted or top-dose-only effect, or effect the other way; inactive = flat fitted curve, though single readings scatter; tested in HEK293 cells; about a fifth of its hits are not listed in these tables; note: % is set by controls: 0 for no effect and ±100 for the full control effect; luciferase read-out
Cruzain inh noDet: cruzain (T. cruzi) inhibition without detergent; purified cruzain, Z-FR-AMC fluorescence, no detergent; P25779; Potency, µM, inactives show max response, negative = inhibition, usual class: inhibitors; hit rate 2.3% among 200,000;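 note: plate controls were enzyme without inhibitor for no effect and buffer without enzyme for full effect; nearly all actives have a fitted effect of over 40% in size; top concentration of the series not given in the record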
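Detergent-free condition (0.00005% Triton X-100) in acetate buffer pH 5.5 with DTT. 1.5 nM enzyme and compound were pre-mixed 15 min, then 2 uM Z-FR-AMC substrate added; reaction progress from fluorescence change between first and third reads (60 s).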
SARS PLpro yeast: SARS-CoV PLP inhibition in yeast; hit rate 0.19% among 330,000; S. cerevisiae expressing SARS-CoV PLpro, growth rescue; control for the full effect not named in the record; Potency, µM (top dose mostly 32.9 µM), for inactives: at the top dose activity, positive = growth rescue; AID 485353; active means well fitted rising curve with a large enough effect; inconclusive means small, poorly fitted or top-dose-only effect; inactive means no such curve, though single readings can be large or run the other way; note: 0% is about no effect; nearly all actives have a fitted effect of over 55% in size; growth read by luminescence after 48 h
RE007 growth inh: less growth of the S. pombe RE007 Vpr strain; S. pombe RE007 Vpr strain, BacTiter-Glo ATP luminescence, 24 h; control for the full effect not named in the record; Potency, µM (doses to about 92.2 µM), without a hit: at the top dose activity change, negative = less growth; hit rate 0.21% among 360,000; AID 651644; active = well fitted falling curve with a large enough effect; inconclusive = small, poorly fitted or top-dose-only effect; inactive = no such curve, though single readings can be large or run the other way;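 note: % is set by controls: 0 for no effect and ±100 for the full control effect; nearly all actives have a fitted effect of over 50% in size; the assay follows cell death caused by Vpr and the record does not say whether a fall means rescue or toxicity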
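Fission yeast strain RE007, carrying one chromosomally integrated HIV-1 vpr copy, was seeded at OD 0.01 in PMG+AL medium with 23 nL pinned compound. After 24 h at 30 °C and 99% humidity, viability was read by BacTiter-Glo luminescence.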
* = called active by the depositor; u = inconclusive; x = no result given; & = joins results of further samples; [ ] = another dose, or the depositor's remark. Unless noted, calls come from the whole dose curve; as a rule, active = well fitted curve in the direction sought with a large enough effect; inconclusive = small, poorly fitted or top-dose-only effect, or another doubt; inactive = no such curve, though single readings can be large; an effect the other way counts as inactive or inconclusive. Potency is the fitted concentration of half-maximal effect. Compounds as they come; about 4.6% have a hit in one of these screens.

SMILES | NS1 inh | StopGo reporter | Cruzain inh Det | LASV entry inh | MARV entry inh | Cruzain inh noDet | SARS PLpro yeast | RE007 growth inh
CC(C)(C)C1=C(C#N)C(c2ccc3c(c2)OCO3)C(C#N)=C(N)O1 (stereo not given) | -62.1% | -1.6% | -9.9% | 1.1% | 4.2% | -5.3% | -1.4% | 6.6%
Cn1cnnc1SCc1ccc(C(=O)N=Nc2c(O)n(C)c3ccccc23)cc1 | -0.6% | 7.6% | -9.3% | 10.1% | -23.0% | -8.0% | -0.6% | -6.8%
CCn1c2ccccc2c2nnc(SCc3ccc(C(=O)OC)o3)nc21 | -32.3% | x | -5.7% | 0.6% | 7.5% | u | 5.0% | -5.9%
CCOc1ccc(N(CC)C(=O)c2nn(-c3ccc(OC)cc3)c(=O)c3c2c2ccccc2n3C)cc1 | x | u | -3.8% | -13.1% | -12.7% | 2.9% | -0.8% | -5.8%
CCN(CC(=O)Nc1ccc(NC(C)=O)cc1)C(=O)C(c1ccccc1)c1ccccc1 | -6.2% | -9.0% | 7.7% | x | -3.7% | 17.4% | 7.9% | -3.3%
COc1ccc(CN(C(=O)COc2ccccc2OC)C2CCS(=O)(=O)C2)cc1 (stereo not given) | x | -4.9% | 1.1% | 9.9%[46.1 µM] | x | -1.3% | x | x
CCO[C@@H]1OC(C(=O)NCc2ccccc2)=C[C@H](C2CC2)[C@H]1CCCO | 2.1% | -2.4% | x | x | x | x | -1.1% | -5.2%
O=C(CCC(=O)c1cccs1)Nc1ccc(F)c(F)c1F | 0.1% | 7.1% | -0.8% | u | -2.1% | -16.3% | -0.9% | -8.5%
CN=C1SC(CC(=O)Nc2ccc(N3CCOCC3)cc2)C(=O)N1C (stereo not given) | -9.0% | 5.7% | 1.8% | 22.5% | 25.1% | -19.6% | 4.1% | 7.6%
COC(=O)c1sccc1S(=O)(=O)NC(C)c1cnn(-c2ccc(OC)cc2)c1C (stereo not given) | 10.4% | 4.1% | x | -13.4% | 16.6% | x | -1.0% | -7.0%
CC(NC(=O)c1cn(C)c2ccc(S(=O)(=O)N3CCCC3)cc2c1=O)c1ccc2c(c1)OCCO2 (stereo not given) | -8.8% | 12.7% | -3.2% | 0.0% | u | u | -6.4% | -14.7%
COc1cc(NC(=O)c2ccc(COCC(F)(F)F)o2)cc(OC)c1OC | -10.7% | x | 0.1% | u | 0.5% | 19.4% | -2.3% | 0.7%
O=C(CCc1nnc(C2(c3ccc(Cl)cc3)CCC2)o1)NC1CC1 | 0.5% | 18.5% | x | -0.4%[46.1 µM] | u | x | -0.3% | -3.5%
C=CCN(C(=O)CSc1nnnn1C)c1nc(-c2ccccc2)cs1 | x | -11.5% | x | u | u | x | -0.5% | -19.3%
O=C(NC1CCCC1)C1CC(=O)N(c2ccc(F)cc2)C1 (stereo not given) | 2.7% | -2.6% | x | -4.2%[46.1 µM] | 28.6%[46.1 µM] | x | 0.4% | -22.8%
Cc1cc(=O)oc2cc(OCC(=O)OCC(=O)Nc3c(C)n(C)n(-c4ccccc4)c3=O)ccc12 | 3.2% | -1.8% | x | 2.6% | u | x | 2.7% | 4.3%
COC(=O)C(NC(C)=O)(Nc1ccccc1)C(=O)OC | 5.6% | 20.3% | 2.3% | 1.2% | 0.5%&0.5% | -6.6% | 0.3% | 3.4%
Cc1ccc(-c2nnc3c4ccccc4c(-c4ccccc4)nn23)cc1 | x | -13.0% | -0.2% | u | -2.7%[46.1 µM] | -14.0% | x | x
COCCn1c(=NC(=O)CCS(=O)(=O)c2ccccc2)sc2ccccc21 | x | u | x | -24.5% | -18.0% | x | x | 13.3%
Cc1ccc(CN(Cc2ccco2)C(=S)NCC(=O)NC2CC2)cc1 | x | 3.0% | x | 17.9% | -9.5%[46.1 µM] | x | -0.3% | 3.4%
O=C(CCN1C(=O)/C(=C/c2ccc(F)cc2)SC1=S)NNC(=O)c1ccncc1 | -0.1% | 19.1% | x | x | x | x | -4.1% | -8.7%
O=C1CC(c2ccccc2)CC(=NCCO)/C1=C(\O)CCCN1C(=O)c2ccccc2C1=O (stereo not given) | x | -21.7% | x | -12.9% | -20.3%[46.1 µM] | x | 2.3% | 0.1%
Cc1cccc(S(=O)Cc2ccc(C(=O)N3CCN(C(=O)c4ccco4)CC3)o2)c1 (stereo not given) | 3.4% | -2.6% | x | x | x | x | 1.5% | -14.6%
Cc1ccc(-c2nc(-c3ccccn3)sc2CC(=O)O)cc1 | -1.0% | -17.5% | x | x | x | x | 0.0% | -0.1%
CN(C)c1cccc(C(=O)Nc2nc3ccccc3[nH]2)c1 | -14.2% | -51.2% | x | x | u | x | -1.4% | -4.3%
O=C(COC(=O)c1cc(Br)ccc1O)NNC(=O)c1ccc([N+](=O)[O-])cc1 | x | 2.2% | x | 0.4% | -21.6%[46.1 µM] | x | 3.5% | 0.6%
COCC(=O)Nc1nc2ccccc2s1 | -2.7% | 27.6% | 3.0% | -6.5% | -0.5% | -4.5% | x | 1.2%
O=C(COC(=O)c1ccccc1-n1cnnn1)c1ccc(F)cc1 | x | 5.5% | x | -26.2% | -17.5%[46.1 µM] | x | 2.2% | -0.9%
O=C(c1ccccc1Cc1ccccc1)N1CCN(S(=O)(=O)c2ccc(F)cc2)CC1 | x | -15.5% | x | 8.0% | 7.8% | x | -3.5% | -5.9%
CCOCCCNC(=O)COC(=O)/C=C/c1ccc(S(=O)(=O)N2CCc3ccccc32)cc1 | -3.1% | -9.3% | x | 2.1% | u | x | -0.2% | -8.6%
CCOc1ccccc1NC(=O)CSc1nc2c(c(=O)n(C)c(=O)n2C)n1C | -4.6% | -20.4% | x | 13.4% | -19.9%[46.1 µM] | x | 1.5% | -1.1%
Cc1cccc(C)c1OCC(=O)Nc1oc(-c2ccccc2)c(-c2ccccc2)c1C#N | x | -20.6% | x | u | -19.5% | x | x | -12.5%
CNS(=O)(=O)c1cc(S(=O)(=O)NC)c2cccc3c2c1NC3=O | 25.6% | 94.6%[activator] | x | x | x | x | 4.3% | 3.6%
COc1cccc(Nc2nc(-c3sc(C)nc3C)cs2)c1 | -120.4% | -13.7% | x | x | x | x | -24.4% | -19.8%
CN(CC(=O)Nc1ccc(F)c(F)c1F)C(=O)C1CCC1 | x | -8.1% | x | 2.1% | -4.3%[46.1 µM] | x | 1.6% | 12.2%
CCOP(=O)(OCC)C(C#N)=C1SCN(c2ccc(Cl)cc2)CS1 | -22.5% | -19.9% | -8.6% | -9.9% | 1.3%[46.1 µM] | 12.6µM* | -2.5% | -16.2%
CCOC(=O)c1c(S(=O)(=O)Nc2ccc(C)c(F)c2)c(C)n(C)c1C | 4.4% | 0.0% | x | x | x | x | -1.6% | -2.6%
CC(C)[C@H](NC(=O)c1ccco1)C(=O)OCc1cc(=O)n2c(n1)sc1ccccc12 | -3.8% | -19.5% | x | 17.3%[46.1 µM] | -3.5%[46.1 µM] | x | -0.7% | 10.3%
COC(=O)c1c(NC(=O)COC(=O)c2ccc(Cl)cc2[N+](=O)[O-])sc2c1CCCCC2 | 2.4% | -12.4% | -3.7% | 3.6% | u | u | -16.1% | -2.0%
COc1ccc(-c2nc3cc(C)ccn3c2NC(=O)c2c(F)cccc2Cl)cc1 | 4.5% | -18.5% | x | x | x | x | -1.8% | 0.9%
COC(=O)c1c(NC(=O)COc2cc(C)c(Cl)c(C)c2)sc2c1CCCC2 | x | -19.2% | 6.0% | 10.9%[46.1 µM] | x | 16.0% | x | x
Fc1ccccc1COc1cccc2cccnc12 | x | 4.9% | x | u | u | x | x | -23.4%
COc1ccccc1CNCc1ccc(OC)c2ccccc12 | x | 9.2% | x | -27.5% | u | x | x | 3.9%
COc1ccc(C(=O)NCCC(=O)N2CCC3(CC2)NCCc2[nH]cnc23)cc1 | -3.7% | -10.2% | x | x | x | x | -2.8% | 9.5%
CC1CCCCN1C(=O)c1cc(-c2ccc3c(c2)OCO3)on1 (stereo not given) | -2.2% | 9.2% | x | u | u | x | -6.6% | -0.4%
O=C(c1ccc(NS(=O)(=O)c2ccc3c(c2)OCCO3)cc1)N1CCCCC1 | -9.5% | -22.1% | x | x | x | x | -1.0% | 0.4%
CNC(=O)c1cccc(-n2c(C)nc3cccnc32)c1C | x | -3.0% | 0.5% | 10.7%[46.1 µM] | x | 10.6% | x | x
Clc1ccc(-c2csc3ncnc(NCCN4CCOCC4)c23)cc1 | -6.1% | u | -2.9% | u | u | 3.1% | 7.1% | -5.5%

3 structures already listed, sorted by length of the SMILES, rising:
SMILES | NS1 inh | StopGo reporter | Cruzain inh Det | LASV entry inh | MARV entry inh | Cruzain inh noDet | SARS PLpro yeast | RE007 growth inh
Clc1ccc(-c2csc3ncnc(NCCN4CCOCC4)c23)cc1 | -6.1% | u | -2.9% | u | u | 3.1% | 7.1% | -5.5%
Cc1ccc(CN(Cc2ccco2)C(=S)NCC(=O)NC2CC2)cc1 | x | 3.0% | x | 17.9% | -9.5%[46.1 µM] | x | -0.3% | 3.4%
O=C(CCc1nnc(C2(c3ccc(Cl)cc3)CCC2)o1)NC1CC1 | 0.5% | 18.5% | x | -0.4%[46.1 µM] | u | x | -0.3% | -3.5%

Next section
SMILES | NS1 inh | StopGo reporter | Cruzain inh Det | LASV entry inh | MARV entry inh | Cruzain inh noDet | SARS PLpro yeast | RE007 growth inh
COc1ccc(NC(=O)c2ccc3c(c2)sc2nc(-c4ccc(OC)cc4)cn23)cc1 | x | 35.5%[activator] | -1.5% | 4.8%[46.1 µM] | x | 13.8% | x | x
COC(=O)c1ccccc1Oc1nc(Cl)cc(OC)n1 | -7.8% | -11.4% | -2.5% | 1.3% | u | 0.3% | 2.8% | 13.8%
Cc1cc(/C=N/NC(=O)c2cc3ccccc3o2)c(C)n1C | -1.1% | 15.4% | x | x | x | x | -12.3% | 4.6%
Cc1ccc(N(C)C(=O)c2noc3c2CCCCC3)cc1C | x | 8.2% | -2.7% | 0.9%[46.1 µM] | x | 3.2% | x | x
COc1ccccc1NC(=O)c1cc2ccc(O)cc2o/c1=N\O | 6.0% | -18.1% | -2.0% | -21.6% | -26.2% | 15.1% | 4.0% | -20.5%
